# INS promoter inh = TRM-6 insulin promoter activity inhibition | TRM-6 cells (human fetal islet line), insulin promoter-eGFP reporter, imaging; reporter expression induced with tamoxifen | inhibition, % at 2 µM | hit rate 0.9% among 130,000;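 active means inhibition above the mean plus 3 SD, with well images judged a real hit on visual review, cut at about 60% in these data, passing the limit was not always enough; inconclusive means inhibition over the cutoff but images rejected on review; inactive means inhibition not above the cutoff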
# RGS16-Gao = regulators of human RGS16-Galphao interaction | hit rate 0.38% among 220,000 | binding response (% of control), % at 10 µM | bead-based flow cytometry RGS16-Galphao binding, fluorescence; actives lie on both sides;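 active means below 25% or above 175%, edge rows of some plates excepted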;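 further: Galphao activated by GDP with aluminum fluoride before binding; 100% = wells without compound and 0% = beads without RGS; some results beyond the cut were filed as inactive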
# GALR2 ag = GALR2 (human) receptor agonism | O43603 | GALR2-expressing cells, agonist activation read-out | activation, %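 (tested at 5 µM)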 | AID 803 | hit rate 0.48% among 140,000;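 active means above mean plus 3 SD of all compounds, about 5% in these data, not always enough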;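 further: 0% = vehicle buffer wells and 100% = reference agonist at full effect; tested in CHO reporter cells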
# PKD1 kinase inh = blocks activity of human protein kinase D1; PKD1 kinase fluorescence polarization assay; hit rate 0.056% among 200,000; inhibition, %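 (about 10 µM by stock and volumes)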; AID 797;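 active means inhibition of 50% or more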;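 further: controls were vehicle for no effect and a reference inhibitor for full effect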
# Target sequence (Q15139 whole entry, looked up): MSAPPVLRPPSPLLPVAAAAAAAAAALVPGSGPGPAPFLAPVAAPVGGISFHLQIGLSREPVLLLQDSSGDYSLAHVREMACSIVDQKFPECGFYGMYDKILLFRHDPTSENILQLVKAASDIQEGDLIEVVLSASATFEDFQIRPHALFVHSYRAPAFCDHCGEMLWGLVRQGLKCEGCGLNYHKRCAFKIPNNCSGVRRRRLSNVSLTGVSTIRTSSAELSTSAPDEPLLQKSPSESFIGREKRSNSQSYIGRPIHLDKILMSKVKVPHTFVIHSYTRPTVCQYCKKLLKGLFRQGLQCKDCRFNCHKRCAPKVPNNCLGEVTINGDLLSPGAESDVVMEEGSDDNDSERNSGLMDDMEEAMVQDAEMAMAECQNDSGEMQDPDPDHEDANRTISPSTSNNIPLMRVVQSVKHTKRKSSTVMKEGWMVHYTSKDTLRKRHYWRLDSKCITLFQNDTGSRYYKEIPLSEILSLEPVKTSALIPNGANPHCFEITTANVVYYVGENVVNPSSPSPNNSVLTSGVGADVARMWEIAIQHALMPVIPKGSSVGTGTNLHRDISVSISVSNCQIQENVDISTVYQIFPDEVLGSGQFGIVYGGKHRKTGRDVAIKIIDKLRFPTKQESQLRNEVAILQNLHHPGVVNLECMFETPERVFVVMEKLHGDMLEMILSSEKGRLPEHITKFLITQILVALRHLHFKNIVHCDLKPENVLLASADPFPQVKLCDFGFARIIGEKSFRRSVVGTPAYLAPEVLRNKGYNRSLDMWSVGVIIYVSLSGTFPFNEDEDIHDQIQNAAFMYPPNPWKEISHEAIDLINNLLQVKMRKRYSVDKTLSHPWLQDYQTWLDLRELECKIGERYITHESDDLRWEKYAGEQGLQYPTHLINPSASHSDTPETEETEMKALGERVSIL
# HSV augment = increases HSV replication in cells | hit rate 0.005% among 220,000 | HSV replication augmentation in cells, fold increase | maximum fold increase;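 active means peak rise of 1.5-fold or more in the series; inconclusive means self-fluorescent or not available for retest; tested in PC3 cells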;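 further: first round at 10 µM; read as green reporter fluorescence; hits show the peak of a series up to 25 µM; 1 = signal of infected wells without compound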
# INS promoter inh cell count = further read-out of INS promoter inh, marked with its call; normalized cell count, %; measured here: cell count, toxicity; reference of the scale not given here;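 cells exposed to compound for 48 h; stained nuclei by imaging scaled within each plate; lower means fewer cells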
# HSV augment primary fold = second read-out of HSV augment, no call of its own (marks repeat the call); fold increase; compound at 10 µM; measured here: primary screen fold increase 10 uM; tested in PC3 cells;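 GFP signal in the first replicate; 1 = infected wells without compound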
# The depositor's hits bear a star; i = inactive; ? = inconclusive; . = no result given; [ ] = dose if it differs, or a comment.
SMILES,INS promoter inh,INS promoter inh cell count,RGS16-Gao,GALR2 ag,PKD1 kinase inh,HSV augment,HSV augment primary fold
Cc1ccc(S(=O)(=O)N/N=C/c2c(C)nn(-c3ccccc3)c2C)cc1,32.4,48.7,95.7,-4.2,-8.1,i,0.9
Cc1ccc(Cl)cc1N1CCN(S(=O)(=O)c2c(C)[nH]c(=O)[nH]c2=O)CC1,.,.,103.6,0.8,-11.3,i,0.87
N#C/C(=C(\O)c1ccco1)c1ccccn1,.,.,96.2,-3.5,8.1,i,0.95
O=C(CSc1ccccc1C(=O)O)NCC1CCCCC1,.,.,101.5,.,-1.4,i,0.98
Cc1ccc(C(=O)/C=C2\NCC(C)NC2=O)cc1 (stereo not given),17.9,75.2,106.5,-0.9,-9.1,i,0.96
Brc1ccccc1Cn1c(-c2cscn2)nc2ccccc21,13.3,88.6,98.3,-1.0,-12.3,i,0.75
O=C(CSc1nnc(CNC(=O)C23CC4CC(CC(C4)C2)C3)n1-c1ccc(F)cc1)Nc1ccccc1,.,.,101.2,0.1,-3.6,i,0.84
CC(=O)Nc1cc2nn(-c3ccccc3)nc2cc1Cl,-12.0,115.2,95.1,-2.3,1.4,i,0.98
Cc1ccc(S(=O)(=O)CC(=O)c2cc(C)c(O)c(C)c2)cc1,.,.,102.2,.,8.0,i,0.94
O=S1CCCSC1c1cccnc1 (stereo not given),14.7,108.8,103.5,-0.5,-2.8,i,1.02

# In a second layout: results already given.
> CC(=O)Nc1cc2nn(-c3ccccc3)nc2cc1Cl
  INS promoter inh: -12.0 | INS promoter inh cell count: 115.2 | RGS16-Gao: 95.1 | GALR2 ag: -2.3 | PKD1 kinase inh: 1.4 | HSV augment: i | HSV augment primary fold: 0.98
> Cc1ccc(S(=O)(=O)CC(=O)c2cc(C)c(O)c(C)c2)cc1
  INS promoter inh: . | INS promoter inh cell count: . | RGS16-Gao: 102.2 | GALR2 ag: . | PKD1 kinase inh: 8.0 | HSV augment: i | HSV augment primary fold: 0.94

# (continued)
SMILES,INS promoter inh,INS promoter inh cell count,RGS16-Gao,GALR2 ag,PKD1 kinase inh,HSV augment,HSV augment primary fold
Cc1ccc(-n2c(SCC3CCCCO3)nnc2-c2ccco2)cc1 (stereo not given),-156.2,102.2,155.9,-0.1,0.0,i,1.03
CN(C(=O)c1cc2ccccc2oc1=O)C1(C)CCS(=O)(=O)C1 (stereo not given),33.3,121.4,103.3,.,-9.1,i,1.07
O=C(COC(=O)c1cc(S(=O)(=O)N2CCOCC2)ccc1F)c1ccc[nH]1,2.0,121.8,103.1,-1.8,-4.3,i,0.99
O=[N+]([O-])c1cc(Cl)cc(/C=N/Nc2nc3ccccc3s2)c1O,.,.,102.1,.,-7.8,i,0.89
COc1ccc(Nc2nc(N)nc(CSC(=S)N3CCN(C)CC3)n2)cc1,-41.2,136.8,100.5,.,6.7,i,0.83
COc1ccc(OC)c(NC(=S)NN2CCOCC2)c1,-21.7,85.7,96.3,-0.7,-9.4,i,1.02
Cc1nc(N2CCCCC2)nc(N2CCCCC2)c1C=O,.,.,92.7,.,-0.8,i,1.08
NC(=O)CC[C@@H]1NC(=O)[C@H](CO)NC(=O)c2cc([N+](=O)[O-])cc(I)c2NCCC[C@@H](C(N)=O)NC(=O)[C@H](Cc2ccc(O)cc2)NC1=O,20.0,101.8,105.8,-0.6,2.6,i,1.04
C/C=C/C(=O)N1c2ccc(C)cc2C(C)=CC1(C)C,.,.,102.5,.,.,i,0.95
NC(=O)CSc1nnc(-c2cc(-c3cccs3)nc3ccccc23)o1,-5.4,150.4,100.6,-2.0,-6.4,i,0.84
COc1ccc(-c2cc3ccccc3n2CC(O)CNC(CO)(CO)CO)cc1 (stereo not given),-58.6,90.4,98.7,-3.1,-4.4,i,0.81
Cc1cccc(C)c1NC(=O)CCCCCNS(=O)(=O)c1ccccc1,-88.9,100.2,103.0,.,-12.2,i,0.88
C=CCn1c(SCC(=O)N(C)C)nc2cc(C(=O)O)ccc2c1=O,.,.,97.5,.,-5.1,i,0.99
COc1cc(C2N(c3cccc(Cl)c3)C(=O)C3CCCN32)cc(OC)c1OC (stereo not given),.,.,100.3,-1.5,-2.0,i,1.02
Cc1cc(Cl)c(S(=O)(=O)NC2CCCC2)cc1OCC(=O)NC1CCCCC1,-17.1,72.7,100.6,-0.8,-0.5,i,0.92
Cc1ccc(-n2c(-c3ccc(Cl)cc3)c[n+]3c2CCC3)cc1,.,.,103.4,.,.,i,1.09
O=S1(=O)CCC(N=Cc2ccc(-c3ccc(Cl)cc3)o2)C1 (stereo not given),.,.,121.1,.,-6.0,i,0.97
CS(=O)(=O)N1CCC(C(=O)Nc2c(F)cccc2F)CC1,-33.3,130.6,100.6,-0.8,-8.6,i,0.923
COCCn1c(N)c(N(Cc2ccccc2)C(=O)c2oc3ccccc3c2C)c(=O)[nH]c1=O,-28.6,154.7,101.3,.,-3.8,i,0.99
O=C(O)C1CCCCC1C(=O)Nc1ccc(F)cc1F (stereo not given),-15.4,107.6,103.7,-2.8,-4.3,i,1.08

# Rewritten with values under each structure: entries from further up
# Screens in order – INS promoter inh | INS promoter inh cell count | RGS16-Gao | GALR2 ag | PKD1 kinase inh | HSV augment | HSV augment primary fold
Cc1cccc(C)c1NC(=O)CCCCCNS(=O)(=O)c1ccccc1
 : -88.9 | 100.2 | 103.0 | . | -12.2 | i | 0.88
COc1ccc(-c2cc3ccccc3n2CC(O)CNC(CO)(CO)CO)cc1 (stereo not given)
 : -58.6 | 90.4 | 98.7 | -3.1 | -4.4 | i | 0.81

# Further results.
SMILES,INS promoter inh,INS promoter inh cell count,RGS16-Gao,GALR2 ag,PKD1 kinase inh,HSV augment,HSV augment primary fold
CCc1ccc(C(=O)COC(=O)c2cnccn2)cc1,-50.0,100.0,100.9,-0.9,-2.1,i,1
Cc1c(Cl)c([N+](=O)[O-])nn1CCCC(=O)Nc1ccc(Cl)cc1Cl,-28.6,107.0,110.9,-0.6,1.7,i,0.9
CSCCCNC(=O)c1ccc(OC2CCN(CCc3ccccc3)CC2)cc1,.,.,110.4,.,-8.0,i,0.75
COc1ccc(C(=O)NCC(=O)Nc2ccc(F)cc2)cc1OC,-6.7,123.0,104.7,-1.6,-5.2,i,0.96
Nc1cccn2c(-c3ccc(Cl)cc3)cnc12,-133.3,128.8,98.7,.,-5.9,i,1.29
Cc1ccc(NC2(c3nnnn3-c3c(C)cccc3C)CCCCC2)cc1,-11.1,93.5,280.8*[activator],-2.3,-1.9,i,1.08
COc1ccc(OC)c(CNC(=O)C2CCCN(c3nc4ccccc4o3)C2)c1 (stereo not given),.,.,104.2,-1.2,-3.1,i,0.92
O=S(=O)(Cc1ccccc1Cl)CC(O)COc1ccccc1Cl (stereo not given),-400.0,104.2,98.6,-2.7,-0.9,i,0.87
COC(=O)Cc1c(C)nc2nc(-c3ccccc3)[nH]n2c1=O,-300.0,122.7,97.9,-3.3,-5.9,i,1
COc1cc(-c2nnco2)cc(OC)c1OC,.,.,98.1,.,-9.2,i,1.02
Cc1ccc(NC(=O)CN(C)C(=O)CN2C(=O)NC(C)(c3ccccc3)C2=O)cc1 (stereo not given),6.1,112.0,80.2,-0.5,6.2,i,1.04
CCOC(=O)CCNC(=O)c1ccccc1Br,-5.3,114.5,99.8,-0.9,-11.3,i,0.83
O=C(COC(=O)CCC(=O)c1ccc(F)cc1)Nc1ccc(F)cc1F,28.6,100.4,88.8,.,-5.0,i,0.97
C=CCOCCN(C)C1=NS(=O)(=O)c2ccccc21,.,.,105.3,.,-1.3,i,0.9
O=C(COC(=O)c1ccccc1O)Nc1ccc(OC(F)F)cc1,20.0,64.3,102.6,-3.1,-3.1,i,1.09
O=C(NC(c1ccccc1)c1ccccc1)C1(c2cccs2)CCOCC1,-42.9,87.8,102.9,-1.2,0.5,i,0.88
COc1ccccc1CC(=O)Nc1ccc(-c2noc(COc3ccc(Br)cc3)n2)cc1,-11.1,120.3,-24.7,-0.7,4.5,i,0.79
Cc1ccc(C(=O)C(=O)c2ccc(C)c(N)c2)cc1N,.,.,110.5,.,.,i,0.99
Clc1nc(-c2ccccc2)cc(-c2ccc(Br)cc2)n1,6.7,100.2,.,-1.9,0.1,i,1.45
O=C(NC(=S)Nc1ccc(NC(=O)c2cccs2)cc1)c1ccco1,10.0,126.8,100.5,1.4,-11.2,i,0.82
Brc1c(C[n+]2ccccc2)nc2ccccn12,.,.,97.6,.,.,i,0.96
C=CCOC(=O)C1=C[C@@H](c2ccccc2)[C@H](CCCO)[C@@H](OCC)O1,.,.,100.8,.,2.7,i,1.08
Cc1ccc(S(=O)(=O)N(C)CCCC(=O)NC(C)(C)CO)cc1,.,.,97.3,.,3.7,i,1.11
CCOC(=O)c1c(NC(=O)CSc2nc3ccccc3s2)sc(C)c1C,-50.0,56.2,102.5,-1.6,10.9,i,0.88
O=C(Cn1c(=O)[nH]n(-c2ccccc2)c1=O)N1CCCc2ccccc21,18.9,136.1,66.5,-3.1,-1.7,i,0.95
CCOC(=O)N1CCN(C(=O)CSc2nnc(-c3cccc(Cl)c3)o2)CC1,28.6,124.8,104.2,-1.2,1.9,i,0.83
COc1cc(/C=N/N=C2/NC(=O)C(CC(=O)O)S2)ccc1OCc1cccc(Cl)c1 (stereo not given),.,.,99.4,.,-0.8,i,0.91
CCc1ccccc1N=C1S/C(=C/c2ccccc2OCC(=O)N2CCOCC2)C(=O)N1C,-14.8,90.3,101.5,1.2,-7.3,i,0.81
O=c1c(Cc2ccc(Cl)cc2)c(O)ccn1Cc1cccc(Cl)c1,40.0,60.0,102.2,-2.0,-5.5,i,0.88
CC(C)C[C@H](NC(=O)c1nc[nH]c1C(=O)NCC(=O)OC(C)(C)C)C(=O)OC(C)(C)C,.,.,99.3,.,.,i,0.72
CCn1c2ccccc2c2nnc(SCC(=O)c3ccccc3)nc21,47.4,82.6,99.2,0.0,-3.9,i,0.79
CCOc1ccc(C(c2c(NC(=O)c3ccccc3)sc(C)c2C)N2CCN(CCO)CC2)cc1 (stereo not given),12.0,34.5,140.7,0.2,0.7,i,0.86
Cn1c(=NC(=O)COc2ccccc2)sc2cccc(F)c21,.,.,102.6,.,.,i,1.06
CCN(CC)C1=CC2=CC(=C(C#N)C#N)CCC2CC1 (stereo not given),i,87.0,168.2,-2.6,-40.5,?,.
O=c1sc(N2CCN(c3ccc(F)cc3)CC2)nc2ccsc12,.,.,82.2,0.6,-0.2,i,0.66
COc1ccc(CCC(C)Nc2ccc(F)c(F)c2)cc1 (stereo not given),.,.,106.3,-0.1,1.2,i,1.06
C=CCC1(Cl)C(=O)C(Cl)=C(N2CCN(C)CC2)C1(OC)OC (stereo not given),.,.,125.0,.,.,i,1.12
Cc1ccccc1-c1noc(-c2ccccc2C(=O)N2CCCC2)n1,-16.7,122.4,94.2,0.4,-2.7,i,1
CCOC(=O)c1[nH]c(CO)c(C(=O)OCC)c1C,.,.,93.5,.,.,i,0.99
O=[N+]([O-])c1ccc(/C=C/c2ccc3cccc([N+](=O)[O-])c3n2)cc1,-11.1,120.7,99.3,0.1,-5.8,i,0.72
Cc1cccn2cc(COc3cccc([N+](=O)[O-])c3)nc12,.,.,102.3,.,-11.1,i,0.92
C/C(Cl)=C/Cn1c(N2CCCC2)nc2c1c(=O)n(C)c(=O)n2C,-17.1,59.4,101.1,-0.1,-16.2,i,0.997
Cc1ccc(C2C(C#N)=C(N)Oc3c2sc2ccccc32)o1 (stereo not given),7.7,93.2,94.2,-3.0,-4.2,i,1.18
CCOC(=O)C(NS(=O)(=O)c1ccccc1)(C(F)(F)F)P(=O)(OC(C)C)OC(C)C (stereo not given),1.4,64.9,105.9,-1.3,-8.2,i,0.93
CC(C)(C)NC(=O)Cn1nnc(-c2ccc(S(C)(=O)=O)cc2)n1,.,.,78.3,0.0,-16.9,i,0.94
O=C1/C(=C/C=C/c2ccco2)SC(=S)N1c1ccc(O)cc1,.,.,96.0,.,.,?,.
Cc1cccc(OCC(=O)Nc2nc3ccc([N+](=O)[O-])cc3s2)c1,.,.,81.5,-1.6,0.0,i,0.8
Cc1ccc(CNC(=O)C2(c3cccs3)CCOCC2)cc1,.,.,98.3,1.4,10.6,i,1.01
Cc1ccc(C2(CCN)CCOC(C(C)C)C2)cc1 (stereo not given),.,.,102.6,0.0,-7.0,i,0.83
Cc1ccc(NCC(=O)N/N=C\C(Br)=C\c2ccccc2)cc1,-22.2,64.8,114.6,-1.0,-1.1,i,0.88
N#CCSc1nc2ccccc2o1,.,.,95.8,.,.,i,1.06
CCN(CC)c1ccc(O)c(C=Nc2ccc(C)c(C)c2)c1,-17.6,95.4,98.6,.,1.4,i,0.98

# High-throughput results: PubChem, several laboratories
